MT1-MMP promoter – inhibitors of MT1-MMP promoter transcription, cell-based, luciferase reporter, luminescence (AID 618). calls from a first round at 10 µM; hits with a dose series show EC50 in µM. MT1-MMP promoter luciferase reporter cells, luminescence. hit rate 0.62% among 87,000;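 active = over half of the reporter light lost at 10 µM or EC50 under 50 µM; inactive = the rest and hits that failed the dose series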;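 also: actives suppress MT1-MMP promoter-driven transcription so potencies describe inhibitors; HT1080 fibrosarcoma cells; overnight exposure; toxic or luciferase-blocking compounds were not removed from the actives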
WNV protease inh – WNV NS2B-NS3 proteinase inhibition | z-score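 (tested at a level between 10 and 100 µM)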 | P06935 | WNV NS2B-NS3 protease, fluorogenic substrate Ex360/Em465; stronger effect = lower value | hit rate 0.18% among 65,000;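 active = z-score at -3 or under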;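 also: score is relative to mean and spread of the compound wells of a plate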
Target sequence (P06935 1371-1501 limits assumed): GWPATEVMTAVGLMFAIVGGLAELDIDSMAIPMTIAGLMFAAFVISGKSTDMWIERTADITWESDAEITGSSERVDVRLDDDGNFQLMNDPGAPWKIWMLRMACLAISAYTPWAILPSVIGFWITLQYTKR
Target sequence (P06935 1502-1679 limits assumed): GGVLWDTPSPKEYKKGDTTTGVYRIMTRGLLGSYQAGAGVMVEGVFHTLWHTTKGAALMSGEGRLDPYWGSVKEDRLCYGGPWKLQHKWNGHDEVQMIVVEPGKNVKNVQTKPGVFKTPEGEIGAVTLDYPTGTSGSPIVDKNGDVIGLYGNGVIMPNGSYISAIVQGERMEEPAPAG
Hsc70 ATP site – Hsc70 inhibitors, probe displacement, primary screen, biochemical, fluorescence polarization (AID 568); Hsc70 fluorescence polarization, probe displacement; higher % means a stronger effect; strong numbers were not always called active; one-dose displacement, % at 20 µM; IC50 in µM for titrated hits; 83,000 tested, under 10 active;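 active = displacement above 50% without optical interference and an IC50 on retest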;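 also: ATPase domain with a fluorescein-tagged ATP probe; 0% = vehicle and 100% = excess ADP; read after one hour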
* hit, by the source's call; i = inactive; · = no result given; + = active, no number.

SMILES	MT1-MMP promoter	WNV protease inh	Hsc70 ATP site
CC1CC(NS(=O)(=O)c2cccs2)CC(C)(C)C1 (stereo not given)	i	·	-1.9%
CCC(c1c(C)[nH]oc1=O)c1c(C)[nH]oc1=O	i	0.25	0.8%
CCC(Sc1ccc2nnc(-c3ccc(OC)c(OC)c3)n2n1)C(=O)O (stereo not given)	i	1.3	-2.9%
COc1ccc(OC)c(S(=O)(=O)Nc2ccccc2F)c1	i	0.89	6.1%
CCOc1ccc2nc(SCC(=O)N(C)C3CCS(=O)(=O)C3)[nH]c2c1 (stereo not given)	i	0.34	4.8%
COc1ccc2oc(=O)c(-c3nc4ccccc4o3)cc2c1	i	·	3.6%
COc1ccc(-n2nnc3c(SCc4ccccc4)ncnc32)cc1	i	-0.11	0.2%
CCC(NS(=O)(=O)c1ccc(OC)cc1)C(=O)O (stereo not given)	i	-0.7	-2.8%
NC1=NC(c2ccc(Cl)cc2)n2c(nc3ccccc32)N1 (stereo not given)	i	0.73	3.2%
Cc1ccc(S(=O)(=O)NC(=O)Nc2ncc3c(n2)CC(c2ccco2)CC3=O)cc1 (stereo not given)	i	0.62	-0.1%
Cc1ccc2c(c1)c1cccc3c1n2CCN3CCC(N)=O	i	-0.52	-2.9%
Cc1nc2sc(C(c3ccco3)N3CCc4ccccc4C3)c(O)n2n1 (stereo not given)	i	0.33	-4.3%
CC(C)(C)c1ccc(C(=O)Nc2ccc(CC(=O)O)cc2)o1	0.23µM*	·	0.2%
O=C(Cn1c(-c2ccccn2)nc2ccccc21)NCCN1CCOCC1	i	0.41	-3.4%
C=C(C)C1Cc2c(C)nn(-c3ccccc3)c2C1 (stereo not given)	i	-1.4	-2.9%
CCN(CC(=O)NC1CCCCCC1)S(=O)(=O)c1ccccc1	i	0.38	2.1%
CSCCC(NC(=O)c1c(C)oc2c1CCCC2)C(=O)O (stereo not given)	i	-0.59	5.3%
CCOC(=O)c1cnn(-c2nc3sc4c(c3c(=O)[nH]2)CCCC4)c1N	i	0.99	5.8%
COC(=O)c1ccc(Oc2cc(C)nc(SC)n2)cc1	i	0.91	-5.9%
COC(=O)C1ON2OC(C(=O)OC)C(C(=O)OC)C2C1CC(C)=O (stereo not given)	i	0.52	-2.7%
COc1cccc(NC(=O)C2C3C=CC4(O3)C2C(=O)N(C2CC2)C4C(=O)NC2CCCCC2C)c1 (stereo not given)	i	-0.53	0.8%
OC1(c2ccccc2)C/C(=N\n2cnnc2)C=C1c1ccccc1 (stereo not given)	i	-1.6	-0.2%
c1csc(CSc2nnc3sc4ccccc4n23)c1	i	-0.17	4.2%
COc1ccc(Nc2nc3ccccc3c(=O)s2)c(OC)c1	i	-0.08	3.9%
N#CCCCSc1nnc(-c2ccc(Cl)cc2)n1-c1ccccc1	i	1.5	4.3%
SMILES	MT1-MMP promoter	WNV protease inh	Hsc70 ATP site
COc1ccc2[nH]c3c(NCCCN4CCCC4=O)ncnc3c2c1	i	·	-1.1%
CCOC(=O)N1CCN(C(=O)Cn2ncc3c2-c2ccccc2OC3)CC1	i	0.0029	-2.9%
Cc1nn(-c2ccccc2)c(Cl)c1C1C(C#N)=C(N)Oc2c1c(C)nn2-c1ccccc1 (stereo not given)	i	·	-0.5%
C/C(NC(=O)c1ccccc1F)=C1\C(=O)C[C@@H]2[C@H]1C2(C)C	i	-1.3	0.3%
COCCn1nnnc1C(c1cc2cccc(C)c2[nH]c1=O)N1CCN(c2ccccc2F)CC1 (stereo not given)	i	-0.63	0.2%
COC(=O)c1cc(OC)c(OC)cc1NC(=O)c1cnccn1	i	3.1	-0.3%
CC1(C)Cc2c(c(N3CCOCC3)nc3sc4c(NN)ncnc4c23)CS1	i	·	2.5%
COc1ccc(C2c3sc(=O)[nH]c3SC3C(=O)N(c4ccccc4)C(=O)C32)cc1 (stereo not given)	i	0.56	3.8%
COC(=O)c1cc(NS(=O)(=O)c2ccc3c(c2)CCC(=O)N3)cc(C(=O)OC)c1	i	-0.82	-6.8%
COCCOC(=O)c1c(C)n(C)c2ccc(OC(=O)c3cccs3)cc12	i	0.45	1.0%
CN1CCN(c2ccc(Cl)cc2NS(=O)(=O)c2ccccc2Cl)CC1	i	0.33	5.6%
COc1ccc(NC(=O)CSc2c(C)n[nH]c2C)cc1	i	·	3.4%
COc1ccc(S(=O)(=O)N(C)c2ccc(C(=O)N3CCC(C(N)=O)CC3)cc2)cc1	i	-1.1	2.4%
CCn1c(-c2ccoc2C)n[nH]c1=S	i	·	-9.1%
COc1ccccc1NC(=O)c1nn(C)cc1Br	i	·	-0.3%
CC(C)NC(=O)c1ccccc1N(Cc1ccccc1)S(C)(=O)=O	i	·	4.5%
COc1ccc(C2OC(=O)CC2C(=O)NC2CCCCCC2)cc1OC (stereo not given)	i	-1.8	-5.5%
CCCC1Cc2c(sc3nc(SC)nc(N)c23)CO1 (stereo not given)	i	0.14	-6.1%
COc1cc(C(=O)NCc2ccco2)cc(OC)c1OC	i	0.28	-7.4%
COC(=O)c1ccccc1NC(=O)Cn1cnc2cc(C)c(C)cc21	i	-0.44	-1.7%
C=CCn1c(SCC(=O)NC23CC4CC(CC(C4)C2)C3)nc(O)cc1=O	i	1.1	-5.4%
CC(Sc1nnc(N)s1)C(=O)Nc1ccc(N2CCOCC2)cc1 (stereo not given)	i	·	4.5%
COc1ccc(N2C(=O)[C@@H]3[C@H](C2=O)[C@H]2c4ccccc4C=CN2[C@@H]3C(=O)Nc2ccccc2)cc1	i	·	-58%
Cn1c(=O)[nH]c(=O)c2c1nc(CN1CCN(c3cccc(Cl)c3)CC1)n2CCN1CCOCC1	i	-0.67	2.8%
CC(=O)c1cc2c(cc1NC(=O)CCc1ccccc1)OCO2	i	-0.63	11%
SMILES	MT1-MMP promoter	WNV protease inh	Hsc70 ATP site
CC1(C)CC(=O)C(C=NCCc2ccc(S(N)(=O)=O)cc2)=C(O)C1	i	-1.2	-1.1%
CC1S/C(=C(\C#N)C(N)=O)N(c2ccc(F)cc2)C1=O (stereo not given)	i	-0.11	-1.7%
O=C(CN1CCN(c2ccc(Cl)cc2)CC1)Nc1ccc(F)cc1	i	-0.99	-2.7%
CCc1cccc(C)c1N(C(=O)Cn1c(=O)[nH]c2ccccc21)C(C)COC (stereo not given)	i	0.04	-1.4%
O=C(CN1CCN(CCOCCO)CC1)N1c2ccccc2Sc2ccc(Cl)cc21	i	-0.59	-6.9%
O=C1C2CCCN2C(c2ccccc2)N1c1cccc(Cl)c1 (stereo not given)	i	0.91	-1.2%
CC1CC(C)CN(CC(C)(C)NS(=O)(=O)c2ccccc2)C1 (stereo not given)	i	1.4	0.2%
N#CC(=C1CCCC1)c1nc(-c2ccccc2)cs1	i	·	1.8%
Cc1ccc(-n2ncc(C(=O)N3CCc4ccccc4C3)c2NC(=O)c2ccco2)cc1C	i	-0.69	-0.3%
CC(C)C12CCC(C(=O)O)C(C1)C(=O)O2 (stereo not given)	i	1.6	1.8%
CC1CCCC(NC(=O)c2ccc(CNc3c(N4CCCC4)c(=O)c3=O)cc2)C1C (stereo not given)	i	-0.35	0.1%
O=C(Nc1ccc(S(=O)(=O)N2CCOCC2)cc1)c1ccc(Cl)cc1	i	-0.4	4.3%
Cc1ccc2c(CC(=O)OC3CCOC3=O)coc2c1 (stereo not given)	i	0.89	2.8%
O=C(NCc1ccco1)c1csc2c1CCCCC2	i	1.3	-0.2%
CC1CC(C)CN(CCCNC(=O)C2CCN(S(=O)(=O)N3CCCCC3)CC2)C1 (stereo not given)	i	0.62	-3.8%
O=c1c2cc(N3CCOCC3)ccc2[nH]c(=S)n1Cc1ccco1	i	-0.89	-1.5%
O=c1c2c3c(sc2n2c(=S)[nH]nc2n1Cc1ccccc1)CN(Cc1ccccc1)CC3	i	·	2.6%
N#CCCN(Cc1cccnc1)C(=O)c1ccc(S(=O)(=O)N2CCOCC2)cc1	i	-1.4	0.2%
O=C(CCN1C(=O)COc2ccccc21)NCCN1CCN(c2cccc(Cl)c2)CC1	i	-0.87	-2.2%
Nc1ccc(Cl)c(-c2nc3ncccc3o2)c1	i	-0.68	-11%
CCCc1cc(C(=O)N2CCN(C(c3ccccc3)c3ccccc3)CC2)no1	i	-0.31	3.0%
Cc1cn(Cc2ccccc2)c(=O)[nH]c1=O	i	·	2.6%
Cc1cc(-c2csc(NC(=O)c3ccc(=O)n(C)n3)n2)c(C)n1CC1CCCO1 (stereo not given)	i	-0.38	-2.5%
CN1C(=O)c2oc3ccccc3c(=O)c2C1c1ccncc1 (stereo not given)	i	-1.1	4.3%
CCN1C(=O)c2ccccc2Sc2ccc(C(=O)NCCN3CCOCC3)cc21	i	0.12	-5.4%
SMILES	MT1-MMP promoter	WNV protease inh	Hsc70 ATP site
COC(=O)c1[nH]c2ccc(C)cc2c1NC(=O)C1=COCCO1	i	-0.76	1.5%
Cc1noc(C)c1S(=O)(=O)Nc1ccc(C(=O)O)cc1	i	-0.61	2.6%
COc1ccc(C2C(C(=O)N3CCCCC3)c3ccccc3C(=O)N2C)cc1 (stereo not given)	i	-1.4	-2.0%
Cc1ccc(Nc2cc(C)nn2-c2nc(C)cc(=O)[nH]2)cc1	+	3	-1.7%
CCc1c(C)nc(N)n2c(SCC(=O)N3CCCC(C)C3)nnc12 (stereo not given)	i	-1	0.6%
CCOC(=O)Cn1c(=O)c(-c2ccccc2NCc2ccccc2)nc2ccccc21	i	·	-7.6%
O=C(CSc1nnc(-c2ccco2)n1-c1ccccc1)N1CCN(C(=O)c2ccco2)CC1	i	-0.24	6.6%
CCn1ccc(C(=O)Oc2ccc(C(C)C)cc2)n1	i	1.5	-4.7%
O=C(CCS(=O)(=O)c1cccc2nonc12)NCCc1ccccc1	i	1.3	-2.2%
O=C(Nc1sc2c(c1C(=O)NC1CCCCC1)CCC2)c1ccco1	i	1	-8.7%
c1ccc(Nc2nc(-c3ccccn3)cs2)cc1	i	·	6.3%
O=C(Nc1ccc2nc(-c3cccnc3)[nH]c2c1)C12CC3CC(CC(C3)C1)C2	i	·	-3.4%
CCCn1[nH]cc(SC)c(=O)c1=O	i	-0.73	-2.3%
O=C(c1cc2c(s1)-c1ccccc1OC2)N1CCN(c2ccccn2)CC1	i	1.2	-0.8%
COc1ccccc1OC(=O)c1ccc(S(=O)(=O)N(C)C)cc1	i	·	0.7%
COc1ccc(-n2cc(C(=O)O)c3ccccc3c2=O)cc1	i	·	-5.7%
Cc1cc2cc(CN(Cc3ccc4c(c3)OCO4)C(=O)c3cnccn3)c3nnnn3c2cc1C	i	1.2	-15%
O=C(Cn1cnc2ccccc2c1=O)Nc1ccc2c(c1)CCC2	i	0.24	0.5%
COC(=O)c1ccc(Oc2nc(Nc3ccc(C)c(C)c3)nc(N(C)C)n2)cc1	i	·	-0.7%
CCOc1ccc(S(=O)(=O)N(C)c2ccc(OCC(=O)NCc3ccco3)cc2)cc1	i	·	8.3%
Cc1cc(NCc2ccccc2)nc2ccccc12	i	·	-0.2%
COC(=O)c1c(NC(=O)CSc2nnc(-c3cccnc3)n2Cc2ccco2)sc(C)c1C	i	-0.74	-3.8%
O=C1CN(C(=O)c2ccccc2F)c2ccccc2N1	i	-0.8	-4.4%
NC(=O)c1cn(-c2ccccc2)nc1-c1cccnc1	i	0.97	12%
O=C1NC2CCCCC2NC1CC(=O)N1CCN(c2ccccc2)CC1 (stereo not given)	i	0.05	-1.7%
Cc1csc(NC(=O)C2CCCCC2C(=O)O)n1 (stereo not given)	i	0.78	0.2%
CCn1c(=O)c2cc(C(=O)NCc3cccs3)sc2c2ccccc21	i	-1.2	6.6%
COc1ccc(CCNC(=O)CN(c2ccccc2OC)S(C)(=O)=O)cc1OC	i	1.9	9.5%
O/N=C(\Cc1cscn1)c1ccc(O)cc1O	i	-1.2	1.8%
Cc1csc(NC(=O)c2nc(-c3ccccc3)n(-c3ccccc3)n2)n1	i	0.05	-0.2%

Arranged by number of heavy atoms (descending): some entries from above.
SMILES	MT1-MMP promoter	WNV protease inh	Hsc70 ATP site
Cn1c(=O)[nH]c(=O)c2c1nc(CN1CCN(c3cccc(Cl)c3)CC1)n2CCN1CCOCC1	i	-0.67	2.8%
COC(=O)c1c(NC(=O)CSc2nnc(-c3cccnc3)n2Cc2ccco2)sc(C)c1C	i	-0.74	-3.8%
O=c1c2c3c(sc2n2c(=S)[nH]nc2n1Cc1ccccc1)CN(Cc1ccccc1)CC3	i	·	2.6%
O=C(CCN1C(=O)COc2ccccc21)NCCN1CCN(c2cccc(Cl)c2)CC1	i	-0.87	-2.2%
Cc1ccc(S(=O)(=O)NC(=O)Nc2ncc3c(n2)CC(c2ccco2)CC3=O)cc1 (stereo not given)	i	0.62	-0.1%
CCN1C(=O)c2ccccc2Sc2ccc(C(=O)NCCN3CCOCC3)cc21	i	0.12	-5.4%
CCc1cccc(C)c1N(C(=O)Cn1c(=O)[nH]c2ccccc21)C(C)COC (stereo not given)	i	0.04	-1.4%
COc1ccc(C2OC(=O)CC2C(=O)NC2CCCCCC2)cc1OC (stereo not given)	i	-1.8	-5.5%
COc1ccc(-n2nnc3c(SCc4ccccc4)ncnc32)cc1	i	-0.11	0.2%
COC(=O)C1ON2OC(C(=O)OC)C(C(=O)OC)C2C1CC(C)=O (stereo not given)	i	0.52	-2.7%
COc1ccccc1OC(=O)c1ccc(S(=O)(=O)N(C)C)cc1	i	·	0.7%
Cc1ccc(Nc2cc(C)nn2-c2nc(C)cc(=O)[nH]2)cc1	+	3	-1.7%
COc1ccc(OC)c(S(=O)(=O)Nc2ccccc2F)c1	i	0.89	6.1%
N#CC(=C1CCCC1)c1nc(-c2ccccc2)cs1	i	·	1.8%
CCC(NS(=O)(=O)c1ccc(OC)cc1)C(=O)O (stereo not given)	i	-0.7	-2.8%
CCCn1[nH]cc(SC)c(=O)c1=O	i	-0.73	-2.3%
